BJeLR lethal: kills HRASV12-expressing BJeLR cells; BJeLR (HRASV12) viability, CellTiter-Glo ATP luminescence, 48 h; reference of the scale not given here; inhibition, % (no concentration beside the values); actives 0.17% (n = 300,000);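 active means replicate mean above 50%; inconclusive means above 50% but judged a plate artefact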;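 further: 50 nL library stock added to about 25 µL; numbers are from one replicate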
PrP UTR inh: inhibition of PrP 5' UTR reporter expression; inhibition, % (no concentration beside the values); cell-based PrP 5' UTR mRNA reporter, plate reader; actives 0.35% (n = 340,000);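 active means every replicate at 50% or more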;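 further: 0 = median of the neutral control wells; tested in H4 reporter cells; numbers are from one replicate; inactives centre near -14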
Mtb hypoxia rep: inhibitors of hypoxia-regulated fluorescent reporter in Mycobacterium tuberculosis; M. tuberculosis hypoxia-regulated fluorescent reporter, fluorescence; fluorescence inhibition, % (no concentration beside the values); actives 0.1% (n = 300,000); AID 1159583;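 active means 35 to 45% if threefold the growth effect, above 45% if 1.5-fold the growth effect; inactive means the rest, general growth blockers included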;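 further: wells of about 50 µL received 100 nL stock; 0% = vehicle wells and 100% = reference inhibitor wells; whole bacteria with a GFP reporter of the hypoxia response; strong numbers were not always called active; many hits fall short of the cut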
RN4220 kill: S. aureus RN4220 growth inhibition | OD600, 16 h | inhibition, % (test concentration not listed) | actives 0.33% (n = 330,000) | AID 1259311;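 active means z-score of -3 or lower and OD600 up to 0.18 on both plates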;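 further: plate controls were untreated cells for no effect and reference antibiotic for full effect; stock transfer was 100 nL into about 80 µL; one replicate is shown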
Autofluor counter: flagged as autofluorescent in microsphere protease counterscreen; actives 3.1% (n = 360,000); fluorescence intensity (concentration not given with the values); AID 624483; compound autofluorescence counterscreen, microsphere flow cytometry; hits give high values;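 active means at least 3 SD above the mean of all compounds, about 16000 in these data; inconclusive means too few beads counted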;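 further: 100 nL of 1 mM stock went into each well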
ugtP null kill: kills S. aureus RN4220 lacking UgtP | S. aureus RN4220 ugtP deletion, OD600 growth, 16 h; some inactives read as strong as hits | growth inhibition, % (no concentration beside the values) | actives 0.54% (n = 330,000);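 active means z-score under -3 and OD600 up to 0.15 on both plates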;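 further: plate controls were untreated wells for no effect and antibiotic for full effect; wells of about 80 µL received 100 nL stock; the first replicate is given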
Mtb hypoxia rep growth: recorded beside Mtb hypoxia rep, whose call it bears; growth inhibition, %; measured here: M. tuberculosis growth (absorbance);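 0% = vehicle and 100% = reference antibiotic; read after six days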
* = called active by the depositor; u = inconclusive; x = no result given.

SMILES	BJeLR lethal	PrP UTR inh	Mtb hypoxia rep	Mtb hypoxia rep growth	RN4220 kill	Autofluor counter	ugtP null kill
Cc1cc(C)nc(N(C#N)C(C)C(=O)N(C)C)n1 (stereo not given)	-7	-43	14	4	2.1	2226	6
COC(=O)N1C(C)C=C[C@]1(Cc1ccccc1)C(=O)OC (stereo not given in full)	x	x	6	3	2.1	x	0
CN(Cc1ccccc1)Cc1nc2c(c(=O)n(C)c(=O)n2C)n1CCc1ccccc1	-7	-27	6	-3	2.5	11070	-4
COc1ccc(NC(=O)CC2C(=O)N(C)C(=S)N2Cc2cccs2)cc1 (stereo not given)	-1	-22	2	1	6.8	10968	3
Cc1nn(C)c(Cl)c1CN1CCN(C2CCCC2)C(CCO)C1 (stereo not given)	2	-20	1	-3	-1.8	4225	-3
O=C(O)CC(NC(=O)CCc1ccccc1)c1ccc(Cl)cc1 (stereo not given)	-8	-16	-2	-4	1.8	4092	-4
COc1ccc2c(=O)c3c(=O)n(Cc4ccco4)c(-c4ccc(C)cc4)nc3oc2c1	8	-30	-2	4	2.1	9483	-17
CCNc1ccc(C(=O)N/N=C/c2c(C)nn(-c3ccccc3)c2N2CCCC2)cc1[N+](=O)[O-]	-19	-16	x	x	x	2172	x
c1ccc2c(-c3nc4ncccc4o3)cccc2c1	7	-32	-3	6	20	5960	-19
CCN(C(=O)COC(=O)c1cnccn1)c1cccc2ccccc12	x	-5	4	6	2.8	3732	1
CCn1c(SCc2c(Cl)cccc2Cl)nc2nc3c(cc2c1=O)CCCC3	9	-3	10	7	3.8	4200	0
Cc1ccccc1OCc1nnc(SCC(=O)O)n1-c1ccccc1	-4	14	11	6	2.6	3520	9
C#C[C@@]1(O)CCC2C3CCC4=C/C(=N/OCC(=O)NC(C(=O)NC(CC(C)C)C(=O)O)C(C)C)CC[C@]4(C)C3CC[C@@]21C (stereo not given in full)	6	-19	x	x	x	3336	x
COc1ccc2nc3ccccc3nc2c1NC(=O)c1ccc(Cl)cc1	-5	-16	-4	2	8.7	2069	-4
Cc1ccc(NC(=O)Nc2cc(-c3ccccc3)nn2C)cc1Cl	-4	-16	-3	6	-10	3686	-30
Cc1cc(C(=O)CSc2n[nH]c(N)n2)c(C)n1-c1cc(F)ccc1F	3	-49	x	x	5.6	3746	8
CCOC(=O)C1=C(Nc2ccc(Br)cc2)CC(C)(O)C(C(=O)OCC)C1c1ccccc1 (stereo not given)	10	-11	x	x	-4.8	4548	-1
CCOc1nc(NCc2ccco2)nc(Nc2ccccc2F)n1	4	-52	7	4	3.7	4189	-9
CN(C)c1ccc(N=Nc2ccc(C(=O)O)cc2)cc1	2	4	2	5	-0.4	3754	0
COCCn1c(SCC(=O)NC2CC2)nnc1-c1ccc(Cl)cc1	x	8	-7	-2	-0.9	u	2
COc1ccc(C)cc1NC(=O)CNC(C)C(=O)Nc1cc(Cl)ccc1Cl (stereo not given)	4	-12	6	-5	4.2	4496	5
O=C(O/N=C\c1ccc(N2CCOCC2)c([N+](=O)[O-])c1)c1ccc(F)cc1	1	-9	x	x	x	u	x
O=C(Nc1cccc(O)c1)c1ccc(C(=O)c2ccccc2)o1	-10	-114	-1	6	4.6	2375	-12
COc1ccc(CN(CCN)C2CC(C)N(C)CC2C)cc1 (stereo not given)	-7	-7	-8	5	-5.4	3913	0
Cc1[nH]c2ccccc2c1SCC(=O)N1CCOCC1	8	-9	-2	-1	5.4	4423	0
O=C(Nc1ccncc1)Nc1ccc(Cl)cc1Cl	4	-7	10	-4	-3.9	3903	9
Cc1ccc(NC(=O)c2ccc(-n3cccn3)c([N+](=O)[O-])c2)cc1C	-5	-32	-8	-2	-2.8	9537	-12
NC(=O)NN=C1C2CCCC1C(c1ccccc1)NC2c1ccccc1 (stereo not given)	0	-19	-31	-21	-5.7	3178	-14
C1CC(CN2CCOCC2)CN(Cc2nc(CC3CC3)no2)C1 (stereo not given)	-4	-33	9	4	1.3	2544	4
CCOc1ccc(NC(=O)c2sc3nc(C)nc(N4CCOCC4)c3c2C)cc1	-6	-20	7	8	6.3	4341	10
O=C(Nc1cnccn1)Nc1cccc(Cl)c1Cl	0	-19	10	7	5.8	2581	2
CCOc1cc(N2CCOCC2)c(OCC)cc1NC(=O)CC12CC3CC(CC(C3)C1)C2	2	0	x	x	2.8	3039	2
O=C(Nc1ncccc1O)c1ccc(C(=O)c2ccccc2)cc1	5	-51	-2	8	3.4	4994	0
Cc1cc(C)c(C#N)c(SCC(O)CS(=O)(=O)Cc2ccccc2)n1 (stereo not given)	-4	4	0	-11	1.3	6928	5
CCc1nc(NCC2CCCO2)c2oc3ccccc3c2n1 (stereo not given)	-9	-2	7	6	9.5	3241	-23
COc1ccccc1C(=O)NCCCNC(=O)c1ccccn1	0	-21	5	-11	-2.8	3070	13
O=C(/C=C/c1ccccc1)Oc1coc(CSc2ncccn2)cc1=O	2	-19	-3	-6	2.6	5828	10
CCn1c(=O)cc(OCC(=O)NCc2ccco2)c2ccccc21	-10	7	-2	1	-2.3	14868	-9
CC(=O)c1ccc(NC(=O)C(C)OC(=O)c2ccc(Br)o2)cc1 (stereo not given)	x	-23	-11	1	-1.5	u	1
CNC(=O)CSc1nnc(-c2cc(C)cc(C)c2)o1	-2	-30	0	9	6.9	7036	-8
COc1ccc(OC)c(C(c2nnnn2Cc2ccccc2)N2CCN(C3CCCCC3)CC2)c1 (stereo not given)	3	-10	x	x	-2.4	4746	-6
CCCCC/C=C\C[C@H](O)/C=C/c1cccc(C[C@H](O)CCCCO)n1	-1	-10	x	x	x	4499	x
O=C(Nc1ccc(S(=O)(=O)Nc2nccs2)cc1)c1cccc(N2C(=O)c3ccccc3C2=O)c1	-6	-17	10	4	5.5	x	14
O=C(NCc1ccccc1)C1=C[C@H](c2ccc3c(c2)OCO3)C[C@H](OCc2ccc(CO)cc2)O1	6	-25	x	x	x	3693	x
c1ccc(-c2ccccc2OCCOCCN2CCNCC2)cc1	-1	-27	x	x	x	2029	x
N#Cc1c2nc3ccccc3nc2n2cc(NC(=O)c3ccc(F)cc3)ccc12	x	-5	-7	2	1.1	2328	-12
CC(C)(C)c1nnc2cccc(Cl)n12	-4	-16	-4	3	4.3	5145	8
COc1ccccc1/C=C/C=N/NC(=O)c1cccs1	-10	-70	x	x	x	4011	x
Cn1nc([N+](=O)[O-])nc1Oc1ccccc1N	1	-14	5	7	3.4	u	5
CS(=O)(=O)Oc1ccccc1/C=C1/N=C(c2ccc(F)cc2)OC1=O	-7	-3	8	12	4.2	2308	5
O=C(NC1CCCCC1)C1CC(=O)N(CCc2ccc(F)cc2)C1 (stereo not given)	-4	-11	-4	12	-1.2	5536	8
O=C(c1ccco1)N1CCN(c2cc(N3CCOCC3)c(F)cc2[N+](=O)[O-])CC1	0	-8	-6	-1	3.6	3577	5
CCOc1ccc(S(=O)(=O)NN=Cc2ccc3c(c2)OCO3)cc1	x	x	0	-3	-9.2	x	-5
COc1ccc(NC(=O)CSc2nc3c(c(-c4cccs4)c2C#N)CN(C)CC3)cc1OC	4	-7	0	8	-1.0	9408	-1
O=S(=O)(Nc1nc2ccccc2nc1-[n+]1ccccc1)c1ccc(Cl)cc1	-2	-6	-3	4	1.2	2491	4
O=[N+]([O-])c1c(Nc2ccccc2O)cc(N2CCOCC2)c2nonc12	11	-1	-2	6	4.5	5145	14
C[N+](C)(C)CCc1ccc(O)cc1	10	-11	x	x	6.9	5179	-11
CC(=O)c1ccc(N2C(=NC(=O)CCc3ccccc3)SC3CS(=O)(=O)CC32)cc1 (stereo not given)	10	-26	14	1	-0.4	5902	0
COC(=O)C1=C(c2ccc(F)cc2OCc2ccccc2)CC2CCC1N2C(=O)NCc1ccc(Cl)cc1 (stereo not given)	x	x	4	-3	-12	x	-1
CC(C)CC(=O)c1c[nH]c(C(=O)NCc2cccs2)c1	-1	-6	4	5	-2.8	3246	7
More entries
SMILES	BJeLR lethal	PrP UTR inh	Mtb hypoxia rep	Mtb hypoxia rep growth	RN4220 kill	Autofluor counter	ugtP null kill
Cc1ccc(CN2CCN(N=Cc3cccn3C)CC2)c(C)c1	x	x	-6	2	4.1	x	2
Cc1ccc(CNC(=O)c2cc3cc(Br)ccc3oc2=N)cc1	-4	-13	2	8	1.9	u	4
Cc1noc(N)c1C1(O)C(=O)Nc2c(Cl)cc(Cl)cc21 (stereo not given)	-11	-17	5	2	0.0	3222	4
Cc1ccccc1N1C(=O)C(Cl)=C(N2CCOCC2)C1=O	10	-22	7	5	16	3606	2
COc1ccc(CCN2C(=S)NC3CC2(C)Oc2ccc([N+](=O)[O-])cc23)cc1OC (stereo not given)	-2	1	1	4	4.2	x	-5
CCOc1ccccc1NC(=O)CN1CCCCCC1	-7	-11	6	8	9.3	4206	11
COc1cccc(CC(=O)OCC(=O)Nc2nnc(-c3ccccc3)o2)c1	-1	-14	-2	-5	13	u	7
COCCNS(=O)(=O)c1cccn1-c1ncc(C(F)(F)F)cc1Cl	-1	-14	19	7	3.9	4988	2
COc1ccc(CCNS(=O)(=O)c2ccc3c(c2)OCCO3)cc1OC	0	-2	-2	3	-2.2	6076	-3
Cc1ccc(C)c(N2CCN(C(=O)CCc3nc(-c4ccccc4Cl)no3)CC2)c1	x	-16	-8	4	0.1	3799	-1
COc1cc(C#Cc2c(-c3cncn3C)n(C)c3ccc(-c4ccc5[nH]ccc5c4)cc23)cc(OC)c1	x	-38	-5	9	-9.5	3939	-5
Cc1cnc(NC(=O)CSc2nnc(-c3ccccc3)n2Cc2ccccc2)s1	-8	-10	9	16	17	4617	3

Quoted from the listing.
COc1ccc(CCN2C(=S)NC3CC2(C)Oc2ccc([N+](=O)[O-])cc23)cc1OC (stereo not given) in PrP UTR inh: 1
COc1cc(C#Cc2c(-c3cncn3C)n(C)c3ccc(-c4ccc5[nH]ccc5c4)cc23)cc(OC)c1 in RN4220 kill: -9.5

Going on with the list:
SMILES	BJeLR lethal	PrP UTR inh	Mtb hypoxia rep	Mtb hypoxia rep growth	RN4220 kill	Autofluor counter	ugtP null kill
O=S(=O)(NCc1nnc2ccccn12)c1ccc(F)cc1	x	-4	-7	-2	-1.0	x	0
Cc1ccc(S(=O)(=O)NCc2ccc(N3CCN(C(=O)OC(C)(C)C)CC3)cc2)cc1	-2	0	4	-3	-1.6	6092	0
CC1(C)OC(=O)C(=NNc2ccc(O)cc2)C(=O)O1	x	-18	-3	12	4.6	2659	11
Cc1ccc(Cn2c(C3CCCN3c3nc(-c4cc(Cl)c(N)c(Cl)c4)cs3)nc3cc(C(=O)NCCCO)ccc32)cc1 (stereo not given)	-11	-7	2	6	0.7	4221	-14
S=C(NCc1ccco1)Nc1ccc(Cl)cc1	5	-17	-4	-2	2.5	2604	-1
COc1ccc2cc(C3CC(c4ccco4)=NN3S(=O)(=O)c3ccccc3)c(Cl)nc2c1 (stereo not given)	-9	-12	11	3	5.1	2370	-4
Cc1cc(C)c2c(CN3CCOCC3)cc(=O)oc2c1	-2	-17	0	-7	2.5	4322	3
Cc1ccc(S(=O)(=O)N2CCCCC2CCNC(=O)C(=O)Nc2ccccc2F)cc1 (stereo not given)	12	1	x	x	x	6418	x
O=C(Nc1ccc(CCC(=O)N2CCCC2)cc1)c1ncn[nH]1	-7	-12	x	x	1.8	3059	7
CCc1nc(SCc2ccc(C(=O)OC)o2)n[nH]1	-5	-11	7	0	3.7	3313	9
CC1(C)Oc2ccc3ccc(=O)oc3c2/C(=C/Nc2ccccn2)C1=O	-2	4	2	10	12	8772	2

Three records drawn at random from those above, as already listed:
SMILES	BJeLR lethal	PrP UTR inh	Mtb hypoxia rep	Mtb hypoxia rep growth	RN4220 kill	Autofluor counter	ugtP null kill
Cc1ccc(S(=O)(=O)NCc2ccc(N3CCN(C(=O)OC(C)(C)C)CC3)cc2)cc1	-2	0	4	-3	-1.6	6092	0
CC1(C)OC(=O)C(=NNc2ccc(O)cc2)C(=O)O1	x	-18	-3	12	4.6	2659	11
O=S(=O)(NCc1nnc2ccccn12)c1ccc(F)cc1	x	-4	-7	-2	-1.0	x	0

Grouped by structure, the compounds so far with bromine.
SMILES	BJeLR lethal	PrP UTR inh	Mtb hypoxia rep	Mtb hypoxia rep growth	RN4220 kill	Autofluor counter	ugtP null kill
CCOC(=O)C1=C(Nc2ccc(Br)cc2)CC(C)(O)C(C(=O)OCC)C1c1ccccc1 (stereo not given)	10	-11	x	x	-4.8	4548	-1
CC(=O)c1ccc(NC(=O)C(C)OC(=O)c2ccc(Br)o2)cc1 (stereo not given)	x	-23	-11	1	-1.5	u	1
Cc1ccc(CNC(=O)c2cc3cc(Br)ccc3oc2=N)cc1	-4	-13	2	8	1.9	u	4

Screening results deposited in PubChem BioAssay by several laboratories.
